Screening results as filed in PubChem.
VDR inh: vitamin D3 receptor (human) inhibition | Potency, µM, for inactives: max response, negative = inhibition, hits mostly inhibitors | AID 504847 | 400,000 tested, 0.93% active | VDR-SRC2-3 peptide fluorescence polarization, 2 h; active means well fitted inhibition curve with a large enough effect; inconclusive means small, poorly fitted or top-dose-only effect, or another doubt; inactive means no such curve, though single readings can be large or run the other way; further: series mostly up to about 120 µM
Target sequence (P11473 whole entry, looked up): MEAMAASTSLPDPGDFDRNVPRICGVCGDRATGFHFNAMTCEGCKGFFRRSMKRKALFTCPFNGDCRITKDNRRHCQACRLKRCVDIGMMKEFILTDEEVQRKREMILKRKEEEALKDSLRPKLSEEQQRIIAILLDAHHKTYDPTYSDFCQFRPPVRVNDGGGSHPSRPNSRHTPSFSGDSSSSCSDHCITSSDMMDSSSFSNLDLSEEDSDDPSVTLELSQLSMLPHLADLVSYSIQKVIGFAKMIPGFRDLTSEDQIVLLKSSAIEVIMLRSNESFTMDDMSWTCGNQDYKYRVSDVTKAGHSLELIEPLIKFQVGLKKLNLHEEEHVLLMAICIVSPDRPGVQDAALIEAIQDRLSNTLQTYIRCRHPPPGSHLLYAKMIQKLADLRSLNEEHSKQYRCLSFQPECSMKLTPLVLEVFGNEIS
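Measured by FP: displacement of SRC2-3 coactivator peptide from VDR by library compounds, following a two-hour ambient incubation.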
* hit, by the source's call; & = joins results of further samples; [ ] = dose if it differs, or a comment. On the % scale 0 is the no-effect control and ±100 the full control effect; potency means the concentration at half of the fitted maximal effect. Some of the compounds tested. The share of hits here may be higher or lower than overall.

CCCC(NC(=S)NCC1CCCO1)C12CC3CC(CC(C3)C1)C2 (stereo not given) was read as VDR inh -11%.
For CCCNc1c(NS(=O)(=O)c2ccc(OC)c(OC)c2)c(=O)oc2ccccc12 the results were VDR inh 24%.
Screening O=C1CC(N2CCN(c3ccccc3)CC2)C(=O)N1c1cccc(Cl)c1 (stereo not given) returned VDR inh -13%.
For Cc1cc(C)n(C(=O)Cn2nc([N+](=O)[O-])cc2C)n1 the results were VDR inh -23%.
`CCOc1ccc(CCNC(=O)c2cc(C)on2)cc1OCC` gave VDR inh 1%.
`CC(O)CNc1nc2c(c(=O)n(Cc3cccc(Cl)c3)c(=O)n2C)n1C` (stereo not given) gave VDR inh 0%.
Cc1ccc2ncc3c(-c4ccc(F)cc4)nn(-c4cccc(F)c4)c3c2c1 was read as VDR inh 2%.
`Cc1ccc(C(=O)NC2CCS(=O)(=O)C2)cc1S(=O)(=O)N1CCCCC1` (stereo not given) gave VDR inh 16%.
`Cc1ccc2c(=O)cc(C(=O)Nc3cccc(Cl)c3C)oc2c1C` gave VDR inh 3%.
For Cc1ccc(CSc2nsc(C)c2C#N)cc1 the results were VDR inh -7%.

3 structures out of the list, arranged by number of heavy atoms, ascending:
Screening O=C1CC(N2CCN(c3ccccc3)CC2)C(=O)N1c1cccc(Cl)c1 (stereo not given) returned VDR inh -13%.
Cc1ccc2ncc3c(-c4ccc(F)cc4)nn(-c4cccc(F)c4)c3c2c1 was read as VDR inh 2%.
For CCCNc1c(NS(=O)(=O)c2ccc(OC)c(OC)c2)c(=O)oc2ccccc12 the results were VDR inh 24%.

Additional results:
Screening Cc1cc(N2CCN(C)CC2)nc2ccc(NC(=O)Nc3ccccc3)cc12 returned VDR inh 17%.
For Cn1cc([N+](=O)[O-])c(C(=O)NNC(=O)c2ccc([N+](=O)[O-])cc2)n1 the results were VDR inh 6%.
Screening CC1CCCCC1NC(=O)CSC1=Nc2ccccc2C2CC=NN12 (stereo not given) returned VDR inh inconclusive.
Screening COc1ccc(CCn2c(=O)[nH]c3cc(C(=O)N4CCN(c5ccccc5)CC4)ccc3c2=O)cc1OC returned VDR inh 4%&19%.
For Cc1c(C(=O)NC2CCCCC2)sc2ncnc(N3CCN(c4ccccc4)CC3)c12 the results were VDR inh 3%.
Screening COc1cc(NC(=O)c2cc(C)nc3c2c(C)nn3-c2ccccc2Cl)cc(OC)c1 returned VDR inh -6%.
`CC(C)(C)n1nnnc1C(c1ccncc1)N1CCCCCC1` (stereo not given) gave VDR inh 7%.
`COc1ccc(C)cc1-n1c(-c2ccncc2)n[nH]c1=S` gave VDR inh -5%.
`COc1cc(NC(=O)CC2C(=O)N(c3ccccc3)C(=O)N2Cc2ccc(F)cc2)cc(OC)c1` (stereo not given) gave VDR inh 8%.
O=C(CC1S/C(=N/N=C/c2ccco2)NC1=O)Nc1cccc(Cl)c1Cl (stereo not given) was read as VDR inh -14%.
`COc1ccc(CN2CCN(Cc3ccc(C(F)(F)F)cc3)CC2)cc1` gave VDR inh -16%.
Cn1nnnc1SCc1nc2ccccc2s1 was read as VDR inh 14%.
Screening Cc1nnc(-c2cnn(-c3ccccc3)c2N)n1Cc1ccc(F)cc1 returned VDR inh 9%.
`CCOc1ccc(S(=O)(=O)Nc2ccccc2SC)cc1` gave VDR inh 8%.
For Cc1ccc(NC(=O)C2C(c3ccccc3)C=CC(c3ccccc3)C2C(=O)O)cc1 (stereo not given) the results were VDR inh -14%.
For COCC(=O)N1CCC2(CCN(Cc3ccncc3)CC2)CC1 the results were VDR inh inconclusive.
`CCS(=O)(=O)Nc1cccc(C2=NN(S(C)(=O)=O)C(c3cccs3)C2)c1` (stereo not given) gave VDR inh 8%.
`Cc1cc(OCCn2ccnc2)ccc1C(C)C` gave VDR inh 12%.
`COc1cccc(OCCn2cccc2/C=C2/C(=N)N3OC(C)=CC3=NC2=O)c1` gave VDR inh 3%.
`COc1cccc(-n2nnnc2SCC(=O)Nc2nc3c(s2)CCCC3)c1` gave VDR inh 6%.
For N#Cc1cc2c(nc1SCC(=O)O)CCCC2 the results were VDR inh -8%.
CCn1nc(-c2ccccc2)c(-c2ccccc2)c(C(=O)Nc2nc(C)c(C(=O)N(C)C)s2)c1=O was read as VDR inh -2%.
`NC(=O)c1ccccc1N/C=C/C(=O)c1ccc(F)cc1` gave VDR inh -1%.
`CCOC(=O)C(=NC1CCCCC1)NNc1cccc(C(F)(F)F)c1` gave VDR inh 1%.
`CN(CC(=O)Nc1cccc(F)c1)C(=O)CN1C(=O)C2CCCCC2C1=O` (stereo not given) gave VDR inh 1%.
Screening O=C(Cn1nnc(-c2ccccc2)n1)Nc1cccc(S(=O)(=O)N2CCCC2)c1 returned VDR inh -12%.
Screening Cc1ccc(S(=O)(=O)NCC(=O)NNC(=O)c2ccccc2Cl)cc1C returned VDR inh 5%.
Screening CCOC(=O)c1cnc(SCC(=O)Nc2ccc(N3CCOCC3)c(Cl)c2)nc1N returned VDR inh -7%.
O=C(COc1ccc(Cl)cc1)NCC(c1ccco1)S(=O)(=O)c1ccc(F)cc1 (stereo not given) was read as VDR inh 19%.
COc1ccc(/C=C2/CCCc3ccccc3C2=O)cc1 was read as VDR inh 3%.
Screening O=C(Nc1cccn2ncnc12)c1cccc(C(F)(F)F)c1 returned VDR inh -1%.
Cc1nn2c(c1-c1ccccc1)N=C(c1ccco1)CC2c1ccccc1 (stereo not given) was read as VDR inh 17%.
CCCN(c1ccc(C(=O)OC)cc1)S(=O)(=O)c1ccccc1 was read as VDR inh 3%.
For COc1cc(OC)cc(C(=O)NCC2CCCO2)c1 (stereo not given) the results were VDR inh -13%.
O=C(O)CCc1ccc(S(=O)(=O)NCCc2ccccc2)cc1 was read as VDR inh -1%.
`COc1ccc2c(CCNC(N)=S)c[nH]c2c1` gave VDR inh inconclusive.
Screening O=C1CSCN1c1ccc(Cl)c(Cl)c1 returned VDR inh -9%.
Cc1ccc(NC(=O)Cn2cc(C=O)c3ccccc32)cc1 was read as VDR inh 2%.
Screening COc1cccc2c(Cl)c(CC=C(Cl)Cl)c(C)nc12 returned VDR inh -7%.
For CN(C)c1nc2c(c(N)nn2-c2ccc(Cl)cc2)c(=O)o1 the results were VDR inh 0%.
`COc1cccc(NC(=O)CCNS(=O)(=O)c2ccc3c(c2)CCCC(=O)N3)c1` gave VDR inh 3%.
C=CCn1nc2n(c1=O)-c1ccccc1SC2 was read as VDR inh 7%.
Screening O=S(=O)(c1c(F)cccc1F)N(CCc1ccc(F)cc1)C[C@@H](O)COCc1ccccc1 returned VDR inh -4%.
C=CCNC(=O)CC(=O)N/N=C/c1cccc(C)c1 was read as VDR inh 4%.
`CCc1ccccc1NC(=O)CN1C(=O)c2cccnc2Oc2ccc(Cl)cc21` gave VDR inh 2%.
Screening CS(=O)(=O)N(CC(=O)Nc1ccccc1C(=O)NCCc1ccccc1)c1ccc2c(c1)OCCO2 returned VDR inh 4%.
`O=C(CCSc1ccc(Cl)c(Cl)c1)NC12CC3CC(CC(C3)C1)C2` gave VDR inh -25%.
Screening COc1ccc(C2C(C(=O)OC3CCCCC3)=C(C)Nc3nnnn32)c(OC)c1OC (stereo not given) returned VDR inh -15%.
For Cc1cc(C)cc(NC(=O)c2ccc(CSc3nnnn3C)cc2)c1 the results were VDR inh 10%.
Screening CCOC(=O)c1nnn(CC(=O)N2N=C(c3ccccc3)CC2c2ccccc2)c1C(=O)OCC (stereo not given) returned VDR inh 34%[activator].
Cc1ccc(C(=O)Nc2ccccc2N2CCCCC2)cc1S(=O)(=O)N1CCOCC1 was read as VDR inh -6%.
`COc1ccc(C(=O)NCCNC(=O)c2cnccn2)cc1` gave VDR inh 3%.
`CCOC(=O)C1C(c2ccc(Cl)cc2)NC(=S)NC1(O)C(F)(F)F` (stereo not given) gave VDR inh -10%.
For COc1ccc2c(C)cc(SCC(=O)NCCN3C(=O)CSC3=O)nc2c1 the results were VDR inh -17%.
N#Cc1ccc(CN2CCN(C(=O)c3ccccc3)CC2)c(Cl)c1 was read as VDR inh -5%.
`COc1ccc(S(=O)(=O)N2CCC(C(=O)NC(C)CCc3ccccc3)CC2)cc1` (stereo not given) gave VDR inh 0%.
Screening Cc1ccc(S(=O)(=O)/N=C2/NC(=O)/C(=C/c3ccccc3)S2)cc1 returned VDR inh inconclusive.
Screening Cc1cc(C)cc(N(CC(=O)NC(C)(C)C)C(=O)CCC(=O)Nc2ccccn2)c1 returned VDR inh -9%.
`O=C(O)CCSc1nnc(CNc2ccc(Cl)cc2)n1Cc1ccccc1` gave VDR inh inconclusive.
`CCN1CCN(Cc2c(O)ccc3c2O/C(=C\c2ccccc2)C3=O)CC1` gave VDR inh 14%.
Screening CCC(Sc1nnc2c3ccccc3n(CC)c2n1)C(=O)Nc1sc2c(c1C#N)CCCC2 (stereo not given) returned VDR inh -5%.
`CCN(CC)c1ccc(/C=N/OCC(=O)Nc2cccc(C)c2)cc1` gave VDR inh 17%.
For CCCCSCCCNC(=O)CCCN1C(=O)c2ccccc2Sc2ncccc21 the results were VDR inh -22%.
For CN(Cc1ccon1)C(=O)c1ccc2nc(Cc3cccc(Cl)c3)oc2c1 the results were VDR inh -6%.
For COc1cc2c(cc1NC(=O)c1cccc(F)c1)CCCC2 the results were VDR inh -3%.
Screening O=C(COC(=O)Cc1ccc([N+](=O)[O-])cc1)NCc1ccc2c(c1)OCO2 returned VDR inh 0%.
`CCOc1ccc(C(=O)c2cn(CC(=O)Nc3ccc4c(c3)OCCO4)c3ccc(F)cc3c2=O)cc1` gave VDR inh -7%.
`Cc1ccc(C(CC(N)=O)c2ccco2)cc1` (stereo not given) gave VDR inh -4%.
Screening COc1ccc(-c2cc(C)no2)cc1S(=O)(=O)NCC(C)c1ccccc1 (stereo not given) returned VDR inh -14%.
Screening COc1cc(CN2CCCC(C(=O)c3ccc(SC)cc3)C2)cc(Cl)c1O (stereo not given) returned VDR inh 4%.
For Nc1nc2sc3c(c2c(=O)s1)CCCC3 the results were VDR inh -8%.
For CN(C)c1ccc(S(=O)(=O)NCC(=O)OCC(=O)Nc2cccc(Cl)c2)cc1[N+](=O)[O-] the results were VDR inh -5%.
Screening NC(=O)COC(=O)CC(c1ccccc1)c1ccccc1 returned VDR inh 7%.
CC(C)(C)c1cccc(P(=O)(c2ccccc2)c2ccccc2)c1O was read as VDR inh -13%.
`COc1ccccc1CNS(=O)(=O)c1c(C)nc2sc(C)cn2c1=O` gave VDR inh 22%.
Screening COc1ccccc1NC(=O)C(=O)c1cc(C)n(-c2cc(C)cc(C)c2)c1C returned VDR inh -5%.
O=C(Cn1cc([N+](=O)[O-])cn1)N1N=C(C(F)F)CC1(O)C(F)F (stereo not given) was read as VDR inh 8%.
Cc1ccc(CNC(=O)c2nc(SCc3ccc(C)cc3)ncc2Cl)cc1 was read as VDR inh -1%.
C/C(=C\c1ccccc1)C(=O)NCCCn1ccnc1 was read as VDR inh -10%.
`CNC(=S)Nc1cccc(-c2cnc3ccccc3n2)c1` gave VDR inh 2%.
COc1ccc(-n2nnnc2S(=O)(=O)Cc2ccc(C(=O)O)cc2)cc1 was read as VDR inh inconclusive.
CCOC(=O)C1CCN(C(=O)CN2C(=O)c3ccccc3Sc3ncccc32)CC1 was read as VDR inh 0%.
`CCN(CCCNC(=O)CN1N=C(c2ccc(C)cc2)CCC1=O)c1ccccc1` gave VDR inh 2%.
For Cc1ccccc1NC(=O)c1cc(S(=O)(=O)c2ccccc2)ccc1Cl the results were VDR inh 7%.
For O=C(O)c1ccc(S(=O)(=O)c2ccccc2)s1 the results were VDR inh 9%.
`CS(=O)(=O)N1N=C(c2cccs2)CC1c1ccco1` (stereo not given) gave VDR inh -11%.
C/C(=N\NC(=O)CNC(=O)C1COc2ccccc2O1)c1ccco1 (stereo not given) was read as VDR inh -13%.
Screening CCOCC(=O)Nc1ccc(-c2cn3c(C)csc3n2)cc1 returned VDR inh 17%.
Cc1ccc(N(C)C(=O)C2CCCN(c3ncnc4c3nc3n4CCCCC3)C2)cc1C (stereo not given) was read as VDR inh -2%.

Filtered by structure, the entries above containing two or more sulfur atoms
`Cc1ccc(C(=O)NC2CCS(=O)(=O)C2)cc1S(=O)(=O)N1CCCCC1` (stereo not given) gave VDR inh 16%.
For Cc1ccc(CSc2nsc(C)c2C#N)cc1 the results were VDR inh -7%.
Cn1nnnc1SCc1nc2ccccc2s1 was read as VDR inh 14%.
`CCOc1ccc(S(=O)(=O)Nc2ccccc2SC)cc1` gave VDR inh 8%.
`CCS(=O)(=O)Nc1cccc(C2=NN(S(C)(=O)=O)C(c3cccs3)C2)c1` (stereo not given) gave VDR inh 8%.
`COc1cccc(-n2nnnc2SCC(=O)Nc2nc3c(s2)CCCC3)c1` gave VDR inh 6%.
For COc1ccc2c(C)cc(SCC(=O)NCCN3C(=O)CSC3=O)nc2c1 the results were VDR inh -17%.
Screening Cc1ccc(S(=O)(=O)/N=C2/NC(=O)/C(=C/c3ccccc3)S2)cc1 returned VDR inh inconclusive.
Screening CCC(Sc1nnc2c3ccccc3n(CC)c2n1)C(=O)Nc1sc2c(c1C#N)CCCC2 (stereo not given) returned VDR inh -5%.
For CCCCSCCCNC(=O)CCCN1C(=O)c2ccccc2Sc2ncccc21 the results were VDR inh -22%.
For Nc1nc2sc3c(c2c(=O)s1)CCCC3 the results were VDR inh -8%.
`COc1ccccc1CNS(=O)(=O)c1c(C)nc2sc(C)cn2c1=O` gave VDR inh 22%.
For O=C(O)c1ccc(S(=O)(=O)c2ccccc2)s1 the results were VDR inh 9%.
`CS(=O)(=O)N1N=C(c2cccs2)CC1c1ccco1` (stereo not given) gave VDR inh -11%.
